CDC25B CDK2 inh: primary biochemical HTRF screen for blockers of M-phase inducer phosphatase 2 binding to CDK2/cyclin A. z-score (concentration not given with the values). 94,000 tested, 0.72% active. AID 1259370, 2018. HTRF CDC25B-CDK2/CyclinA binding, anti-His/anti-Flag; stronger effect = higher value. P30305+P24941;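 further: score is relative to mean and SD of negative controls; strong numbers were not always called active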
HIV TAR-Tat: TAR RNA-Tat peptide displacers, HIV-1, primary screen, biochemical, FRET, FAM/TAMRA-labeled Tat. HIV-1 TAR RNA, Tat peptide displacement FRET; stronger effect = higher value. z-score (test concentration not listed). 100,000 tested, 0.6% active;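 further: score is relative to mean and SD of negative controls; some compounds called inactive have numbers as strong as hits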
* = called active by the depositor.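 How the source made its calls: active means z-score from 3 up in half or more of its runs; inactive means the rest.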

For Cc1[nH]c(C)c(S(=O)(=O)NCc2ccc3c(c2)OCO3)c1C(=O)N1CCCC1 the results were HIV TAR-Tat -1.36.
Screening C=CCn1c(SCC(=O)O)nc2sc3c(c2c1=O)CCCC3 returned CDC25B CDK2 inh -0.61.
O=C(Nc1ccccc1Cl)C(=O)c1cn(CC(=O)N2CCCC2)c2ccccc12 was read as HIV TAR-Tat 2.03.
Screening CCN1CCN(C(=O)Cn2nc(-n3cccc3)c3c(C)cc(C)nc32)CC1 returned HIV TAR-Tat 0.75.
`Cc1nn(C)cc1CNC(=O)c1cnn2c1NC(c1ccc(Br)cc1)CC2C(F)(F)F` (centres undefined) gave CDC25B CDK2 inh -0.32 and HIV TAR-Tat -0.24.
CC1(C)NC(=O)N(CC(O)CN(c2ccccc2)c2ccccc2)C1=O (centres undefined) was read as CDC25B CDK2 inh -2.05 and HIV TAR-Tat -1.42.
For Cc1nn(CCCC(=O)NCCN2CCOCC2)c(=O)c2c1sc1ccccc12 the results were CDC25B CDK2 inh -1.55 and HIV TAR-Tat -0.28.
Cn1c(NCCO)nc2ccccc21 was read as HIV TAR-Tat 1.35.
CN(C)CCNC(=O)c1ccc(N2CCCS2(=O)=O)cc1 was read as HIV TAR-Tat -0.57.
`O=C(CN1N=NC2C(=O)N(c3ccc(Cl)cc3)C(=O)C21)Nc1cccc(F)c1` (centres undefined) gave HIV TAR-Tat 1.62.
Screening CCC(C(=O)N1CCCCCC1)n1nc(C)n2c(cc3occc32)c1=O (centres undefined) returned CDC25B CDK2 inh -0.1.
S=C1NC2=C(C(c3ccccc3)N1)N1CCC2CC1 (centres undefined) was read as CDC25B CDK2 inh 0.6.
Cc1ccc(Cc2nc3ccccc3[nH]2)cc1 was read as CDC25B CDK2 inh -0.52 and HIV TAR-Tat 1.53.
Screening COCCCN1C(=O)C(=O)/C(=C(/O)c2ccccc2)C1c1cc(OC)ccc1OC (centres undefined) returned CDC25B CDK2 inh -0.61 and HIV TAR-Tat -1.74.
For CCOC(=O)C1(C)C=C(Nc2ccc(OC)cc2)C(=O)N1c1ccc(OC)cc1 (centres undefined) the results were CDC25B CDK2 inh -1.21 and HIV TAR-Tat 1.76.
`COc1ccccc1/C=C/c1ccccc1OC` gave CDC25B CDK2 inh 1.52 and HIV TAR-Tat 1.15.
`C=CCOC1=NC2C(C(=O)N(C)C(=O)N2C)N1C` (centres undefined) gave CDC25B CDK2 inh -1.68.
CCn1c(C(=O)N2CCC(C(=O)NC(C)c3ccc4c(c3)OCCO4)CC2)cc2sccc21 (centres undefined) was read as CDC25B CDK2 inh -2.47.
Cc1nc2cc(Cl)ccc2n1CO was read as CDC25B CDK2 inh -2 and HIV TAR-Tat 1.66.
`Cc1ccc(NC(=O)CN(c2cccc(Cl)c2C)S(C)(=O)=O)cc1Cl` gave CDC25B CDK2 inh 0.07.
`CCCN1C(=O)C2(c3ccccc31)c1c(oc3ccccc3c1=O)C(=O)N2CCCO` (centres undefined) gave CDC25B CDK2 inh -1.79 and HIV TAR-Tat 1.43.
`COCc1nnc(NC(=O)c2sc(C)nc2C)s1` gave CDC25B CDK2 inh -0.97 and HIV TAR-Tat 3.3.
Screening C=CCNc1ncnc2c1c(-c1ccccc1)cn2-c1ccccc1 returned HIV TAR-Tat 27.4.
`O=S(=O)(NCC(c1ccco1)N1CCOCC1)c1ccc(Br)cc1` (centres undefined) gave HIV TAR-Tat 2.33.
Screening N#Cc1nc(/C=C/c2cccs2)oc1N1CCN(C(=O)c2ccccc2F)CC1 returned CDC25B CDK2 inh -1.76 and HIV TAR-Tat 0.12.
Screening Cc1ccc(-n2nnc(-c3ccc(Cl)cc3)n2)cc1 returned CDC25B CDK2 inh -0.95.
Screening Cc1ccc(S(=O)(=O)NCCc2sc(-c3cccc(F)c3)nc2C)s1 returned HIV TAR-Tat -1.4.
For N#Cc1c(C(F)(F)F)nn(-c2ccccc2)c1N the results were CDC25B CDK2 inh -1.94 and HIV TAR-Tat 0.1.
Screening O=C1C=C(NCCc2ccccc2)CC(c2ccco2)C1 (centres undefined) returned CDC25B CDK2 inh -0.39 and HIV TAR-Tat 24*.
Screening CCc1cc(Sc2ccc(N)cc2)n2nc(C)nc2n1 returned HIV TAR-Tat 0.35.
For Cc1noc2ncnc(N3CCCC(C(=O)NCCN4CCN(C)CC4)C3)c12 (centres undefined) the results were HIV TAR-Tat 2.33.
For CCOc1ccccc1CN=C1NS(=O)(=O)C(c2ccccc2)=C1C the results were CDC25B CDK2 inh -0.69 and HIV TAR-Tat 1.08.
`O=C(Nc1cccc(F)c1)N1Cc2cccn2-c2ccccc21` gave HIV TAR-Tat 0.48.
Cn1nc(-c2ccc(-c3ccn(S(=O)(=O)c4ccc(Cl)cc4)n3)s2)cc1C(F)(F)F was read as CDC25B CDK2 inh 0.03.
CCOC(=O)C1=C(C)NC2=C(C(=O)CC(C)(C)C2)C1c1ccc(SC)cc1 (centres undefined) was read as CDC25B CDK2 inh -0.19 and HIV TAR-Tat 0.02.
For COC(=O)c1cnc(Nc2cc(OC)ccc2OC)c2ccccc12 the results were HIV TAR-Tat 1.31.
For O[C@H](CS)[C@H](O)CS the results were HIV TAR-Tat 2.28.
For COc1cc2c(cc1OC)C(C)N(S(=O)(=O)c1ccc(-c3ccccn3)s1)CC2 (centres undefined) the results were CDC25B CDK2 inh -1.34.
`CCOC(=O)c1cc(C)n(-c2ccc(-c3csnn3)cc2)c1C` gave CDC25B CDK2 inh -0.22.
`Cc1ccc(S(=O)(=O)NCCc2csc3nc(-c4cccc(F)c4)nn23)s1` gave HIV TAR-Tat -0.51.
O=C(c1ccccc1Cl)N1CCN(c2ccc3nnc(-c4ccccc4)n3n2)CC1 was read as CDC25B CDK2 inh -2.54 and HIV TAR-Tat 2.38.
`O=C(O)C1CSC(c2ccc(O)cc2)N1` (centres undefined) gave HIV TAR-Tat 0.24.
For CCOc1ccc(N2C(=O)c3cccnc3C2Nc2ccc(OC)c(Cl)c2)cc1 (centres undefined) the results were CDC25B CDK2 inh -1.52 and HIV TAR-Tat 1.23.
For CCCCCOc1ccc(C2NC(=O)NC2=O)cc1 (centres undefined) the results were CDC25B CDK2 inh -0.44 and HIV TAR-Tat 1.69.
Screening O=C(CCCn1c(=S)[nH]c2cc3c(cc2c1=O)OCO3)NCCCN1CCOCC1 returned CDC25B CDK2 inh -2.01.

Of the compounds above, these have bromine.
`Cc1nn(C)cc1CNC(=O)c1cnn2c1NC(c1ccc(Br)cc1)CC2C(F)(F)F` (centres undefined) gave CDC25B CDK2 inh -0.32 and HIV TAR-Tat -0.24.
`O=S(=O)(NCC(c1ccco1)N1CCOCC1)c1ccc(Br)cc1` (centres undefined) gave HIV TAR-Tat 2.33.

Later entries.
Screening Cc1cc(NC(=O)NC(=O)c2csnn2)no1 returned CDC25B CDK2 inh -4.29.
Screening Cc1ccc2nc(C(=O)O)c(C(=O)O)nc2c1 returned CDC25B CDK2 inh -0.71 and HIV TAR-Tat -2.36.
For c1ccc(-c2cc(-c3cn4cccnc4n3)on2)cc1 the results were CDC25B CDK2 inh -1.72.
`Cc1nc2cc(S(=O)(=O)N3CCC(C(=O)NC4CCCCC4)CC3)ccc2n1C1CCCC1` gave CDC25B CDK2 inh 1.55 and HIV TAR-Tat 0.43.
Screening CC1=C(c2ccc(C)c(C)c2)S(=O)(=O)N=C1N(C)Cc1ccccc1 returned CDC25B CDK2 inh -2.28 and HIV TAR-Tat -0.95.
For COc1ccc(CN2CCN(Cc3ccc(Br)cc3)CC2)c(OC)c1 the results were CDC25B CDK2 inh -2.78 and HIV TAR-Tat -0.53.
Screening Cc1ccc(S(=O)(=O)NC(C(=O)Oc2cc3oc(=O)cc(C)c3cc2Cl)C(C)C)cc1 (centres undefined) returned CDC25B CDK2 inh -1.54.
For O=c1c2oc3nc4c(cc3c2ncn1Cc1ccccc1)CCCC4 the results were HIV TAR-Tat 0.26.
For CCCSc1ncc(CO)n1Cc1ccccc1 the results were HIV TAR-Tat 1.26.
c1csc(C2CC(c3ccc4c(c3)OCO4)Nc3nnnn32)c1 (centres undefined) was read as HIV TAR-Tat 1.93.
For CCc1ccc(-c2nc3c(c(=O)[nH]2)Cc2cccc(C)c2O3)cc1 the results were CDC25B CDK2 inh -0.41 and HIV TAR-Tat 2.68.
`O=C(O)c1nc(N2CCCCC2)c2c(-c3ccc(F)cc3)noc2n1` gave CDC25B CDK2 inh -1.57 and HIV TAR-Tat -1.45.
`CC(C)Cn1cc(NC(=O)Nc2ccc3c(c2)OCCO3)c2ccccc2c1=O` gave HIV TAR-Tat -1.13.
Cc1cnc(NC(=O)c2c(O)c3cccc4c3n(c2=O)CC4)s1 was read as CDC25B CDK2 inh -0.57 and HIV TAR-Tat 2.53.
CSc1ncc(Nc2nc(C)c(-c3ccccc3)s2)cn1 was read as CDC25B CDK2 inh -1.44 and HIV TAR-Tat 2.07.

A section from further up, for reference:
For CCc1ccc(-c2nc3c(c(=O)[nH]2)Cc2cccc(C)c2O3)cc1 the results were CDC25B CDK2 inh -0.41 and HIV TAR-Tat 2.68.
`O=C(O)c1nc(N2CCCCC2)c2c(-c3ccc(F)cc3)noc2n1` gave CDC25B CDK2 inh -1.57 and HIV TAR-Tat -1.45.
`CC(C)Cn1cc(NC(=O)Nc2ccc3c(c2)OCCO3)c2ccccc2c1=O` gave HIV TAR-Tat -1.13.
Cc1cnc(NC(=O)c2c(O)c3cccc4c3n(c2=O)CC4)s1 was read as CDC25B CDK2 inh -0.57 and HIV TAR-Tat 2.53.
CSc1ncc(Nc2nc(C)c(-c3ccccc3)s2)cn1 was read as CDC25B CDK2 inh -1.44 and HIV TAR-Tat 2.07.

More records:
CCOc1ccc(S(=O)(=O)c2c[nH]c3cc(OC)c(OC)cc3c2=O)cc1 was read as CDC25B CDK2 inh -1.49 and HIV TAR-Tat -0.84.
Screening Cc1cc(C)c2c(-c3ccccc3)[nH]nc2n1 returned CDC25B CDK2 inh -1.02.
`C[N+](C)(C)CCOC(=O)CCC(=O)OCC[N+](C)(C)C` gave CDC25B CDK2 inh -1.72.
Screening CCCCN(C)C(=O)CCNC(=O)Cn1cnc2sc3c(c2c1=O)CCCC3 returned CDC25B CDK2 inh 0.
For CCOC(=O)c1c(-c2ccco2)csc1N the results were CDC25B CDK2 inh 0.61.
CC(C)(C)NC(=O)CN1C(=O)CSc2ccc(S(=O)(=O)N3CCCC3)cc21 was read as HIV TAR-Tat 1.14.
For Brc1cccc(-c2noc(Cc3ccccc3)n2)c1 the results were CDC25B CDK2 inh -1.47 and HIV TAR-Tat 0.67.
For COc1c(I)cc(Cl)c2cccnc12 the results were CDC25B CDK2 inh -2.27.
For Cc1ccc(-n2nnc(-c3nc(-c4ccccc4)no3)c2N)cc1C the results were HIV TAR-Tat 0.98.
CC1(C)CC(=O)c2cc(C#N)c(=O)n(-c3ccc(Cl)cc3)c2C1 was read as CDC25B CDK2 inh -1.94 and HIV TAR-Tat 1.25.
`O=C1c2ccccc2C(Nc2ccccc2F)N1c1ccc(Cl)cn1` (centres undefined) gave CDC25B CDK2 inh -2.63 and HIV TAR-Tat -0.83.
`O=C(N1CCOCC1)C1(c2cccs2)CCOCC1` gave HIV TAR-Tat 0.97.
`Cc1cc(=O)oc2cc(OC(=O)CCCCCN3C(=O)c4ccccc4C3=O)ccc12` gave CDC25B CDK2 inh -0.65.
Screening O=C1c2ccccc2C(=O)N1CC(O)COc1ccccc1 (centres undefined) returned CDC25B CDK2 inh -2.02.
`COc1ccc2c(c1)nc(COc1ccccc1)n2C` gave CDC25B CDK2 inh -1.09 and HIV TAR-Tat -0.37.
O=C(c1ccc(N2CCCS2(=O)=O)cc1)N1CC=C(c2ccccc2)CC1 was read as HIV TAR-Tat 0.38.
For O=C1c2ccccc2C(=O)N1Cc1nc2ccc(Br)cn2c1NC1CCCCC1 the results were CDC25B CDK2 inh -0.84.
Screening COc1ccc(-c2noc(NCCN(C)C3CCCCC3)n2)cc1OC returned HIV TAR-Tat 0.36.
Screening Cc1cccnc1NC(=O)CCc1nnc2ccc(NCc3ccc4c(c3)OCO4)nn12 returned HIV TAR-Tat -3.21.
`Cc1cc(C)n(C2=NS(=O)(=O)c3ccccc32)n1` gave CDC25B CDK2 inh -0.54 and HIV TAR-Tat 0.65.
For O=C(NC1(C(F)(F)F)C(=O)Nc2c1c(=O)[nH]c(=O)n2-c1ccc(Cl)cc1)c1ccco1 (centres undefined) the results were CDC25B CDK2 inh -0.84.
COc1cccc(CNc2ncnc3cc4nn(C)cc4cc23)c1 was read as HIV TAR-Tat -1.38.
Screening CC1CCN(C(=O)CN2C(=O)C(=O)c3ccccc32)CC1 returned CDC25B CDK2 inh -2.17 and HIV TAR-Tat 0.58.
For CC(=O)OCC(=O)C1(O)CCC2C3CCC4=CC(=O)C=CC4(C)C3C(O)CC21C (centres undefined) the results were CDC25B CDK2 inh -3.97.
Screening O=C(NCCN1CCOCC1)C(=O)c1c[nH]c2ccccc12 returned CDC25B CDK2 inh -0.19.
CN(C)/C=C1/C(=O)NN=C1CSc1ccc(Cl)cc1 was read as CDC25B CDK2 inh -0.37.
`COC(=O)CN1C(=O)CSc2ccc(S(=O)(=O)Nc3ccc(OC)cc3OC)cc21` gave HIV TAR-Tat 0.36.
Cc1sc(NCc2ccccc2O)nc1-c1ccccc1 was read as CDC25B CDK2 inh -0.78 and HIV TAR-Tat 1.83.
`CC(C)OCCCNc1ncnc2ccccc12` gave CDC25B CDK2 inh -0.05 and HIV TAR-Tat 1.05.
Screening CCOC(=O)c1ccc(N2CC(O)=C(c3nc4ccccc4s3)C2=N)cc1 returned CDC25B CDK2 inh -2.55 and HIV TAR-Tat -0.56.
For CCOC(=O)c1oc2ccc3c(c2c1C)C(=O)CC1(CCC(C)CC1)O3 (centres undefined) the results were CDC25B CDK2 inh -0.64 and HIV TAR-Tat -0.58.
For COc1ccc(Cc2nnc3sc(/C=C/c4cccs4)nn23)cc1 the results were CDC25B CDK2 inh -0.27 and HIV TAR-Tat -0.35.
For CCS(=O)(=O)c1nc(S(=O)(=O)c2ccc(Cl)cc2)c(N2CC(C)OC(C)C2)s1 (centres undefined) the results were CDC25B CDK2 inh -0.55 and HIV TAR-Tat 0.43.

Source: PubChem (Center for Chemical Genomics, University of Michigan)
